Bst PK mod: pyruvate kinase (B. stearothermophilus) modulation | Potency, µM | hit rate 1.2% among 51,000 | AID 361 | partly purified Bacillus stearothermophilus pyruvate kinase, luminescence ATP production; ribose 5-phosphate activator present at AC10; in the data active means potency below about 11 µM; inconclusive means mostly about 12 µM to 25 µM; inactive means weaker than that;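 the screen sought inhibitors and activators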;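 note: potency is the fitted concentration of half-maximal effect; scaled between full activation by ribose 5 phosphate and full inhibition by luteolin; about four in five hits inhibit and the cells do not say which; series up to 57 µM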
TsaE inh: YjeE (TsaE) inhibition, E. coli | P0AF67 | purified YjeE, fluorescence polarisation of a bound ADP probe | Potency, µM | hit rate 0.05% among 71,000 | AID 605; active = well fitted falling curve; inconclusive = weaker or top-dose-only fall, or a rising curve; inactive = flat or poorly fitted curve;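 note: top concentration of the series not given in the record; excess ADP was the control for the full effect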
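Purified YjeE (10 uM) with BODIPY Texas Red-labeled ADP probe (2 uM); compounds pin-transferred, 15 min at room temperature. Binding inhibition read as decreased fluorescence polarization; ADP titration as control.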
The depositor's hits bear a star; i = inactive; ? = inconclusive; / = not tested or not shown. Not all compounds are listed, so the mix of outcomes need not match the whole.

Results follow in this order: Bst PK mod, TsaE inh
- CCOC(=O)C1C(c2cccc(Cl)c2Cl)NC(=O)NC1(O)C(F)(F)F (stereo not given)
  /, i
- COc1ccc2c3c1O[C@H]1C[C@H](O)C=C[C@@]31CCN(C)C2
  /, i
- Cn1nnnc1SCc1ccc(F)cc1
  /, i
- CCc1nnc(NC(=O)CSc2nnc(-c3ccncc3)n2Cc2ccccc2)s1
  >57, i
- COc1ccc(OC)c(-c2cc(C(=O)NCCCn3ccnc3)no2)c1
  /, i
- C=CCn1c(SCC(=O)Nc2ccc(NC(=O)c3ccco3)c(OC)c2)nnc1-c1ccncc1
  >57, i
- O=C(COc1ccc(Cl)cc1)NCc1nnc(SCC(=O)NCc2ccc3c(c2)OCO3)o1
  >57, i
- Cc1cccc2cc(CN(CCc3ccccc3)C(=O)N3CCOCC3)c3nnnn3c12
  >57, i
- COc1ccc(C(c2nnnn2C2CCCCC2)N2CCN(c3ccc(OC)cc3)CC2)cc1 (stereo not given)
  >57, i
- CCOC(=O)N1CCN(C(=O)CCCn2c(=O)[nH]c3ccccc3c2=O)CC1
  >57, i
- CCn1c(CC(=O)Nc2ccccc2)nnc1SCC(=O)Nc1ccccc1C(=O)OC
  >57, i
- Cc1cc(N2CCCCCC2)nc(-c2ccccc2O)n1
  >57, i
- O=C(c1ccc(Cl)cc1Cl)N1CCC(c2nc3c(nnn3Cc3ccco3)c(=O)[nH]2)CC1
  >57, i
- O=C(CCn1nc(-c2ccccc2)ccc1=O)N1CCOCC1
  >57, i
- CCNc1cc(O)ccc1C
  /, i
- COc1ccc(Cn2nc(C)cc2C)cc1OC
  >57, i
- CN1CCN(c2nc3c(c(=O)[nH]c(=O)n3C)n2CC(N)=O)CC1
  >57, i
- COc1cc(NC(=O)c2cc(-c3ccco3)on2)c(OC)cc1Cl
  >57, i
- Cc1nc2ccc(S(=O)(=O)NC(C(=O)Nc3nccs3)C(C)C)cc2s1 (stereo not given)
  /, i
- Cc1ccccc1NC(=O)c1c(O)c2cccc3c2n(c1=O)CC3
  >57, i
- COc1ccccc1N1CCN(C(=O)CCc2ccc(S(=O)(=O)NCC(C)C)cc2)CC1
  >57, i
- COc1ccc(-c2nc(-c3ccncc3)no2)cc1OC
  i, i
- COc1ccccc1CNC(=O)Cn1cnc2ccccc2c1=O
  >57, i
- O=C(O)c1cccc(N=Nc2c(S(=O)(=O)O)ccc3c2C(=O)c2ccccc2C3=O)c1O
  /, i
- CC(c1ccccc1)n1cc(C(=O)NCC2COc3ccccc3O2)nn1 (stereo not given)
  >57, i
- N=c1sc2ccccc2n1CCS (tested in a mixture with another compound)
  /, i
- Cc1cccc(N2CCN(C(=O)c3ccc(N4CCCC4=O)cc3)CC2C)c1 (stereo not given)
  >57, i
- O=C(CSc1nc(O)c(Cc2ccccc2)c(=O)[nH]1)Nc1ccccc1
  /, i
- CN(C)C(=O)c1ccc(-c2nc(Nc3ccccc3)c3ccccc3n2)cc1
  /, i
- Cc1ccnc(SCCn2c(N(C)Cc3ccccc3)nc3c2c(=O)n(C)c(=O)n3C)n1
  /, i

Next section, overlapping the part above by 6 compounds.
Results follow in this order: Bst PK mod, TsaE inh
- CC(c1ccccc1)n1cc(C(=O)NCC2COc3ccccc3O2)nn1 (stereo not given)
  >57, i
- N=c1sc2ccccc2n1CCS (tested in a mixture with another compound)
  /, i
- Cc1cccc(N2CCN(C(=O)c3ccc(N4CCCC4=O)cc3)CC2C)c1 (stereo not given)
  >57, i
- O=C(CSc1nc(O)c(Cc2ccccc2)c(=O)[nH]1)Nc1ccccc1
  /, i
- CN(C)C(=O)c1ccc(-c2nc(Nc3ccccc3)c3ccccc3n2)cc1
  /, i
- Cc1ccnc(SCCn2c(N(C)Cc3ccccc3)nc3c2c(=O)n(C)c(=O)n3C)n1
  /, i
- CC1(C)CNC(=O)c2sc(N3CCOCC3)nc2C1
  >25.6, /
- CCn1c(=O)cc(SCC(=O)Nc2ccc3c(c2)OCO3)c2ccccc21
  >11.4, i
- Cc1cccc(CCNC(=O)CCc2nc(-c3ccccc3F)no2)c1
  >57, i
- CSc1nnc(Cn2c(=O)sc3ccccc32)n1CCc1ccccc1
  /, i
- O=C(CSc1nnc(-c2cccnc2)o1)Nc1ccccn1
  >57, i
- CCOC(=O)C1CCN(c2c(NCCCN(C)C3CCCCC3)c(=O)c2=O)CC1
  /, i
- Cc1noc(NS(=O)(=O)c2ccc(NC(=O)Nc3ccc(Cl)c(Cl)c3)cc2)c1C
  >57, i
- COc1cccc(-c2noc(N)c2C#N)c1
  >11.4, i
- Cc1csc(NC(=O)c2cnccn2)n1
  >57, i
- COc1cccc(C2/C(=C(/O)c3cnn(-c4ccccc4)c3C)C(=O)C(=O)N2CCN(C)C)c1OC (stereo not given)
  >25.6, /
- Cc1nc(N2CCN(Cc3nc4ccccc4[nH]3)CC2)c2oc3ccccc3c2n1
  >57, i
- COc1ccccc1CCn1c(=O)c(-c2ccc(F)cc2)nc2cncnc21
  /, i
- CCCc1ccc(OCc2ccc(C(=O)OC)o2)c(OC)c1
  >57, i
- COc1ccc2[nH]c(=O)c(CN(C(=O)c3ccco3)C3CCCCC3)cc2c1
  >57, i
- CN(C)C(=O)c1ccc(-c2ccc3ncnc(NCc4ccccc4)c3c2)cc1
  /, i
- CCOC(=O)C1=C(C)NC(=S)NC1c1cccc(O)c1 (stereo not given)
  /, i
- CCOC(=O)C(C)n1nc(C)c2sc3ccccc3c2c1=O (stereo not given)
  /, i
- COc1ccccc1Nc1ncnc2c1oc1ccccc12
  /, i
- O=C(Nc1ccc(N2CCN(C(=O)c3ccco3)CC2)cc1)c1cccc(F)c1
  >57, i
- CC1CC(C)CN(C(=O)CSc2nnc(-c3ccc(Cl)cc3)o2)C1 (stereo not given)
  /, i
- CCN(C(=O)c1ccnc(C(C)(C)C)c1)c1ccccc1
  >57, i
- O/N=C1\CC/C(=N\O)c2nn(-c3ccc(Cl)cc3Cl)nc21
  ?, i
- CCN1CCN(c2ncnc3sc(C(=O)Nc4ccccc4F)c(C)c23)CC1
  >57, i
- COC(=O)c1ccccc1NC(=O)COC(C)=O
  >57, i
- Cc1ccc(S(=O)(=O)N2CCSC2c2ccco2)cc1 (stereo not given)
  >57, i
- COc1ccccc1C1C=C(c2ccc(C)cc2)Nc2nnnn21 (stereo not given)
  /, i
- N/C(=N/O)c1nc(N2CCCCC2)nc(N2CCCCC2)n1
  >57, i
- O=C(N1CCOCC1)N1CCN(Cc2ccccc2)CC1
  >57, i
- COc1ccccc1CNc1ncncc1-c1ccccc1C(F)(F)F
  /, i
- O=C(c1ccccn1)N(Cc1cc2ccccc2[nH]c1=O)C1CCCCC1
  >57, i
- O=C(Nc1ccccc1)C1CC2CCCC(C1)C2=O (stereo not given)
  >57, i
- CC1Cc2nc(SCC(=O)NCCc3ccccc3)n(C)c(=O)c2S1 (stereo not given)
  /, i
- COC(=O)c1ccccc1NC(=O)COC(=O)c1ccco1
  >57, i
- CC(=O)Nc1ccc(S(=O)(=O)N2CCN(C3CCCCCCC3)CC2)cc1
  >57, i
- CCN(CC)C(=O)CSc1ncnc2c1cnn2Cc1ccccc1
  >57, i
- CC(C)CC1(C(=O)NCC2CC2)C=CCN1C(=O)c1ccccc1 (stereo not given)
  /, i
- Cc1ccc(C)c(N2CCN(S(=O)(=O)c3ccc4c(c3)OCCO4)CC2)c1
  >57, i
- CC(C)NC(=O)c1cc(-c2ccco2)on1
  >57, i
- COC(=O)C(C(=O)Nc1ccccc1C)C1CCCC1 (stereo not given)
  /, i
- O=C(NC1CCCCCC1)c1nc2ncccn2n1
  >57, i
- CC1=C(C(=O)Nc2ccccc2)C(c2ccc3c(c2)OCO3)C2=C(CCCC2=O)N1 (stereo not given)
  >57, i
- CCNc1ncc2nc(-c3ccccc3)c(=O)n(C[C@H]3CCCO3)c2n1
  /, i
- CCOC(=O)CN(C(=O)CSc1nnc(CNc2ccc(C)cc2C)o1)c1ccccc1
  >57, i
- CCN(CC)S(=O)(=O)c1ccc(C(=O)Oc2ccc3c(c2)OCO3)cc1
  >57, i
- O=C(CSc1nnc2scc(-c3ccc(Cl)cc3)n12)NCc1ccco1
  >57, i
- O=C(Nc1cc(C(F)(F)F)ccc1N1CCOCC1)c1c(F)c(F)c(F)c(F)c1F
  >57, i
- CC1(C)CC(=O)CC(=Nc2ccc3[nH]c(=O)[nH]c3c2)C1
  /, i
- COC(=O)[C@@]1(Cc2ccc(F)cc2)[C@@H]2C(=CC(=O)[C@H]2CC(=O)C(=O)N(C)C)CN1C(=O)c1ccccc1
  /, i
- CC(C)OP(=O)(c1ccc(N(C)C)cc1)C(O)c1c(Cl)cccc1Cl (stereo not given)
  >57, i
- COc1cccc(C2=CC(c3ccccc3)n3nnnc3N2)c1 (stereo not given)
  >25.6, /
- Cc1ccc(NC(=O)NC(=O)CSc2nnnn2C)c(C)c1
  >57, i
- c1ccc2c(c1)Cn1nc(Cc3nc4c(s3)CCCC4)nc1-2
  >57, i
- Brc1ccc2c(c1)c1nc3ccccc3nc1n2CCN1CCOCC1
  /, i
- COc1cc2c(cc1OC)CN(C(=O)Cc1ccc(OC)c(S(=O)(=O)N3CCOCC3)c1)CC2
  >57, i
- Oc1ccc2c(c1)OCO2
  /, i
- COC(=O)c1ccc(NC(=O)c2cnc3scc(C)n3c2=O)cc1
  /, i
- CS(=O)(=O)N(CC(=O)N1CCOCC1)Cc1ccc(Cl)cc1
  >57, i
- CCc1nc(N2CCN(C(=O)c3ccccc3)CC2)c(C#N)c2c1COC(C)(C)C2
  >25.6, /
- COc1ccc2c(C)nc(Nc3nc(C)cc(=O)[nH]3)nc2c1
  >57, i
- Cn1c(=O)c2c(nc(SCCCC#N)n2Cc2ccccc2F)n(C)c1=O
  /, i

Next part:
Results follow in this order: Bst PK mod, TsaE inh
- CCOC(=O)N1CCN(C(=O)c2oc3ccc(S(=O)(=O)N4CC(C)CC(C)C4)cc3c2C)CC1 (stereo not given)
  >57, i
- COC(=O)C(C)C1Sc2ccccc2NC1=O (stereo not given)
  >57, i
- Cc1cccc(-c2nc(CS(=O)CC(=O)NC3CCCC3)c(C)o2)c1 (stereo not given)
  /, i
- O=C(CN(Cc1ccccc1F)C(=O)Cn1nnc(-c2cccs2)n1)NCC1CCCO1 (stereo not given)
  >57, i
- COc1cccc(C(=O)Nc2cccc(SC)c2)c1
  /, i
- CC(C)C(c1nnnn1C1CCCCC1)N1CCN(c2ncccn2)CC1 (stereo not given)
  >57, i
- O=C(Nc1ccccn1)c1ccc2ccccc2n1
  9*, i
- Cc1ccc(-c2nnn(CC(=O)Nc3ccccc3-c3ccccc3)n2)c(-n2cnnn2)c1
  >57, i
- O=C(Cn1cnc2c(cnn2-c2ccccc2)c1=O)NCCc1ccccc1
  >57, i
- O=c1cc(-c2ccccc2)nc(N2CCCCC2)[nH]1
  >57, i
- CC(=O)N(CCN(C(C)=O)c1ccccc1)c1ccccc1
  /, i
- Clc1ccccc1-c1nnc2sc(-c3ccc(Br)o3)nn12
  >57, i
- COCCn1c(COc2cccc(OC)c2)nnc1SCC(=O)N1CCOCC1
  >57, i
- Cc1nc(SCC(=O)N2CCCc3ccccc32)c2oc3ccccc3c2n1
  >57, i
- O=C(CCn1c(=O)[nH]c2ccccc2c1=O)Nc1ccccc1
  >57, i
- COc1ccccc1NC(=O)N1CCN(c2cccc(C(F)(F)F)c2)CC1
  /, i
- CC(=O)c1c(C)nn(CC(O)Cn2c3c(c4cc(C)ccc42)CCCC3=O)c1C (stereo not given)
  >57, i
- COc1ccc(C2(O)CCN(C(=O)Cc3cccnc3)CC2)cc1
  >57, i
- Cc1ccc(OCC(O)CN2CCN(CC(O)COc3ccc(C)cc3)CC2)cc1 (stereo not given)
  >57, i
- COc1ccccc1N1CCN(C(=O)C(NS(=O)(=O)c2cccs2)c2ccccc2)CC1 (stereo not given)
  >57, i
- O=C(O)COc1ccc2nsnc2c1Cl
  >57, i
- Cc1csc(NC(=O)CCC(=O)N(CC(=O)NC2CCCC2)Cc2ccco2)n1
  >57, i
- O=C(CCCc1c[nH]c2ccccc12)N1CCN(c2ccc(N3CCOCC3)nn2)CC1
  /, i
- CCOC(=O)c1c(=O)n(O)c2ccc(C)cc2[n+]1[O-]
  >57, i
- O=C(Oc1ccc2c(c1)CN(Cc1ccccc1)CO2)c1ccccc1
  /, i
- Cc1ccc(S(=O)(=O)N2CCCC2C(=O)Nc2nccs2)cc1 (stereo not given)
  /, i
- O=C(c1cccc(C(=O)N2CCc3ccccc32)n1)N1CCc2ccccc21
  /, i
- COc1ccc(C(=O)Nc2ccccc2-c2nnn(CC(=O)NCc3ccco3)n2)cc1
  >57, i
- COc1ccc(-c2ccc(SCC(=O)NCc3ccco3)nn2)cc1OC
  /, i
- COc1cc(NC(=O)C(C)C)ccc1NC(=O)c1ccco1
  /, i

Pulled by structure from above (2):
Results follow in this order: Bst PK mod, TsaE inh
- Cc1ccc(NC(=O)NC(=O)CSc2nnnn2C)c(C)c1
  >57, i
- COc1ccccc1NC(=O)N1CCN(c2cccc(C(F)(F)F)c2)CC1
  /, i

Going on with the list.
Results follow in this order: Bst PK mod, TsaE inh
- CCN1CCN(Cc2ccc(NC(=O)Nc3ccccc3Cl)cc2)CC1
  /, i
- O=S(=O)(NCC1OCCc2ccccc21)c1ccc(S(=O)(=O)N2CCOCC2)cc1 (stereo not given)
  >57, i
- CCn1c(C(=O)Nc2ccsc2C(=O)OC)cc2sc(Cl)cc21
  /, i
- O=C(O)C1CCCCC1C(=O)Nc1ccc(Cl)cc1 (stereo not given)
  >57, i
- c1ccc2c(-c3nc(-c4ccncc4)no3)cccc2c1
  >11.4, i
- CC1CCN(C(=O)Cn2c(SCC(=O)Nc3nccs3)nc3ccccc32)CC1
  >57, i
